# VACV Venus inh: qHTS for Stage-Specific Inhibitors of Vaccinia Orthopoxvirus: Venus Reporter Primary qHTS; Vaccinia virus Venus reporter expression, fluorescence; Potency, µM (series often up to 36.5 µM), for inactives: at the top dose activity change, negative = inhibition, most hits filed as inhibitors; actives 0.46% (n = 330,000); active means well fitted inhibition curve with a large enough effect; inconclusive means small, poorly fitted or top-dose-only effect; inactive means no such curve, though single readings can be large or run the other way; tested in A549 cells; also: nearly all actives have a fitted effect of over 30% in size; inactives centre near -10
# VACV mCherry inh: qHTS for Stage-Specific Inhibitors of Vaccinia Orthopoxvirus: mCherry Reporter Primary qHTS; actives 0.63% (n = 310,000); Potency, µM (highest dose often 36.5 µM), without a hit: at the highest dose activity change, negative = inhibition, most hits filed as inhibitors; Vaccinia virus mCherry reporter infection, fluorescence; about a quarter of the inactives have no number; active = well fitted inhibition curve with a large enough effect; inconclusive = small, poorly fitted or top-dose-only effect; inactive = no such curve, though single readings can be large or run the other way; tested in A549 cells; also: nearly all actives have a fitted effect of over 35% in size; inactives centre near -10
# * marks the source's active call; other numbers are inactive results; i = inactive; ? = inconclusive; . = not tested or not shown; [ ] = remark or other dose. % is scaled to controls: 0 for no effect and ±100 for the full control effect; potency is read from the fitted curve at half-maximal effect.
SMILES,VACV Venus inh,VACV mCherry inh
COC(=O)C1=C(c2cc3ccccc3o2)C[C@@H]2CC[C@H]1N2C(=O)NCc1ccco1,?,?
Cc1noc(C)c1S(=O)(=O)N(CC(=O)NCc1ccc2c(c1)OCO2)c1ccc(C(C)C)cc1,-11%,i
CC(C)CNC(=O)N1[C@H](c2cccs2)[C@@H](C)C(=O)[C@@H](C)[C@@H]1c1cccs1,-16%,-10%
CN(C)CCCNC(=O)C(=O)NCC(c1cccs1)S(=O)(=O)c1ccc(F)cc1 (configuration not stated),-10%,-7%
CCN(C(C)=O)c1cnc(C=NNC(N)=S)c2ccccc12,?,?
CC1=NN(C(=O)Cc2ccccc2)C(O)(c2ccccc2)C1 (configuration not stated),-12%,-15%
O=C(CCl)c1cc2c3c(c1)CC(=O)N3CCC2,-7%,?
CCOC(=O)c1c(C)c(C(=O)NCCCOC)c(C)n1C,-6%,-10%
O=C(NNc1ccccc1Cl)C(O)(c1cccc(C(F)(F)F)c1)c1cccc(C(F)(F)F)c1,?,?
C=CCC[C@H](Cc1ccc(F)cc1)C(=O)OC[C@@H](Cc1c[nH]c2ccccc12)NC(=O)[C@H](CC=C)CC(=O)N[C@H](CO)Cc1ccccc1,?,-11%
O=C(NCc1ccccc1Cl)C1CCC(=O)N(CCCN2CCCC2=O)C1 (configuration not stated),-3%,0%
COc1ccc(NC(=O)C2CC(=O)N(Cc3ccc(C)cc3)C2)cc1S(=O)(=O)N1CCCCC1 (configuration not stated),?,-11%
CCN=C(NCC)SC1CC(=O)N(c2cccc(OCC)c2)C1=O (configuration not stated),-9%,.
CC1(NC(=O)c2cc(-c3cccs3)nn2-c2ccccc2)CCS(=O)(=O)C1 (configuration not stated),-15%,-3%
Cc1nc(-c2ccc(Cl)cc2)sc1C1(C)CC(c2ccncc2)=NO1 (configuration not stated),-14%,i
Cc1cccc(C)c1NC(=O)Nc1ccc2c(c1)OCO2,-1%,-2%
Cc1noc(NS(=O)(=O)c2ccc(N/C=C\C(=O)c3cccc4ccccc34)cc2)c1C,-12%,-8%
CCc1cccc(NC(=O)NC(=O)Cn2nnc(C(=O)OC)c2C(=O)OC)c1,-3%,-14%
Cc1cc2nc(-c3cc(NC(=O)c4cc5ccccc5o4)ccc3Cl)oc2cc1C,4%,-3%
O=C(Nc1nccs1)c1cc(-c2ccncc2)nc2ccccc12,10%,-10%
Cc1cccc(-n2cnc3sc(C)c(C)c3c2=O)c1,-6%,-18%
COc1ccc(CCNC(=O)C(=O)c2cn(CC(=O)N3CCCC3)c3ccccc23)cc1OC,-18%,-5%
COC(=O)C1=C(c2ccc(C(C)=O)cc2)C[C@@H]2CC[C@H]1N2C(=O)NCCCOC(C)C,-2%,-5%
COc1ccc(N2CCN(c3cc(C)nc4nc(-c5ccc(C)cc5)nn34)CC2)cc1,-26%,?
CCCC(C)NC(=O)/C=C/c1cccc([N+](=O)[O-])c1 (configuration not stated),-16%,.

# In a second layout: results already given
# Fields: VACV Venus inh, VACV mCherry inh
Cc1cccc(-n2cnc3sc(C)c(C)c3c2=O)c1
→ -6%, -18%
COc1ccc(CCNC(=O)C(=O)c2cn(CC(=O)N3CCCC3)c3ccccc23)cc1OC
→ -18%, -5%

# An excerpt from above in order of number of heavy atoms, largest number first.
SMILES,VACV Venus inh,VACV mCherry inh
C=CCC[C@H](Cc1ccc(F)cc1)C(=O)OC[C@@H](Cc1c[nH]c2ccccc12)NC(=O)[C@H](CC=C)CC(=O)N[C@H](CO)Cc1ccccc1,?,-11%
COC(=O)C1=C(c2cc3ccccc3o2)C[C@@H]2CC[C@H]1N2C(=O)NCc1ccco1,?,?
CC1(NC(=O)c2cc(-c3cccs3)nn2-c2ccccc2)CCS(=O)(=O)C1 (configuration not stated),-15%,-3%
CC1=NN(C(=O)Cc2ccccc2)C(O)(c2ccccc2)C1 (configuration not stated),-12%,-15%
CCOC(=O)c1c(C)c(C(=O)NCCCOC)c(C)n1C,-6%,-10%

# Full records as entered above. Screens in order: VACV Venus inh | VACV mCherry inh
# COc1ccc(N2CCN(c3cc(C)nc4nc(-c5ccc(C)cc5)nn34)CC2)cc1 is listed as -26% | ?
# CC(C)CNC(=O)N1[C@H](c2cccs2)[C@@H](C)C(=O)[C@@H](C)[C@@H]1c1cccs1 is listed as -16% | -10%
# CCCC(C)NC(=O)/C=C/c1cccc([N+](=O)[O-])c1 (configuration not stated) is listed as -16% | .
# CC1=NN(C(=O)Cc2ccccc2)C(O)(c2ccccc2)C1 (configuration not stated) is listed as -12% | -15%
# C=CCC[C@H](Cc1ccc(F)cc1)C(=O)OC[C@@H](Cc1c[nH]c2ccccc12)NC(=O)[C@H](CC=C)CC(=O)N[C@H](CO)Cc1ccccc1 is listed as ? | -11%

# Back to the main list with the 2 entries that preceded the break.
SMILES,VACV Venus inh,VACV mCherry inh
COc1ccc(N2CCN(c3cc(C)nc4nc(-c5ccc(C)cc5)nn34)CC2)cc1,-26%,?
CCCC(C)NC(=O)/C=C/c1cccc([N+](=O)[O-])c1 (configuration not stated),-16%,.
CC(C)C1(c2ccsc2)NC(=O)NC1=O (configuration not stated),0%,-3%
CCC(Sc1nc2cc(OC)c(OC)cc2c(=O)n1CCc1ccc(S(N)(=O)=O)cc1)C(=O)NCCOC (configuration not stated),-6%,i
O=C(CCn1c2c(c3ccccc31)CCCC2)NNC(=O)c1ccccc1Cl,-17%,i
COc1ccc2c(c1)c1c(c(=O)n(-c3cccc(Cl)c3)c(=O)n1CC(=O)N1CCCC1)n2C,-1%,-2%
C/C(CC(=O)Nc1cccc(C(F)(F)F)c1)=N\NC(=O)c1cnccn1,-2%,10%
Cc1ccc(NC(=O)c2ccc(CN3C(=O)CCn4nc(C)cc43)cc2)c(Cl)c1,-12%,-11%
NC(=O)Cn1c2[n+](c3ccccc31)CC(O)CS2 (configuration not stated),-12%,i[1.46 µM]
CCCCCCN1C=CC(=C/C=C(\C#N)C(=O)OCC)C=C1,29%,-17%
CCOc1ccc(-c2cc(C(=O)NCc3cc(C(F)(F)F)cc(C(F)(F)F)c3)[nH]n2)c(C)c1,-14%,-14%
O=C(NNC(=O)c1ccccc1F)c1ccc(-c2ccc(Cl)cc2)o1,-18%,?
COc1ccc(-c2cn3nc(N4CCCC(C(=O)Nc5ccccc5F)C4)sc3n2)cc1 (configuration not stated),-22%,-27%
Cc1ccccc1C(=O)NCCNC(=O)c1ccco1,-26%,12%
Cc1ccc(C(C#N)c2ccc(Cl)nn2)cc1 (configuration not stated),-4%,2%
CC(=O)c1ccc(OCCOc2ccc([N+](=O)[O-])cc2)cc1,-7%,-15%
COc1cc2ncc3c(-c4ccccc4)nn(CC(=O)NC4CCCCC4)c3c2cc1OC,1%,-4%
Cc1cccc(NC(=S)N(Cc2ccc(Cl)cc2)Cc2ccc(C(=O)O)cc2)c1,-1%,-9%
Cc1ccccc1Nc1nc(N)nc(COC(=O)c2ccc(O)cc2)n1,-15%,-19%
COC(=O)c1c(OC)cc2c(c1C)Oc1c(Cl)c(OC(C)=O)c(Cl)c(C)c1C(=O)O2,-14%,-12%
c1ccc(-c2ccccc2OCCN2CCCC2)cc1,-3%,i
O=c1c2ccccc2nnn1-c1ccccc1,-12%,-26%
CCCC(C)CC1(CCO)C(=O)NC(=S)NC1=O (configuration not stated),2%,i
Cc1cc(C(=O)NNC(=O)c2ccc(F)cc2)c(C)s1,-18%,-16%
COc1ccc(NC(=O)C2Cc3c(-c4cccc(F)c4)ccnc3O2)cc1 (configuration not stated),-14%,-24%
CCOC(=O)C1=C(CN2CCN(c3ccccc3F)CC2)NC(=O)NC1c1ccc(OC)cc1 (configuration not stated),-11%,i
CC(C)(C)C(=O)Nc1ccc(NC(=O)c2ccco2)nc1,-6%,-8%

# Additional compounds
SMILES,VACV Venus inh,VACV mCherry inh
CC(C)NS(=O)(=O)c1ccc(OCC(=O)Nc2ccccc2F)cc1,-8%,3%
CCOC(=O)C1CCN(c2nc3ccccc3nc2Cl)CC1,16%,-7%
CN(C)C1=NC[C@H](Cc2ccccc2)N1CCCCc1ccccc1,-27%,-5%
CC1CCN(c2ncccc2C(=O)O)CC1,-8%,-3%
Cc1ccc(NC(=O)CSc2nnc(-c3ccncc3)n2C)cc1S(=O)(=O)N1CCOCC1,-14%,-26%
C=CCNC(=S)NNC(=O)C(CCC(C)C)CC(C)O (configuration not stated),?,.
COc1ccc(C(O)c2nc(-c3cc4ccccc4o3)cs2)cc1 (configuration not stated),-17%,i
CCOC(=O)Cn1c(=S)[nH]c2c(oc3ccc(Cl)cc32)c1=O,-10%,-9%
Cc1cc(C)c(N(CC(=O)NC(C)(C)C)C(=O)CNC(=O)c2cccs2)c(C)c1,-19%,-14%
CCc1nn(CC(=O)NCCN(CC)CC)c(=O)c2cc3occc3n12,-4%,-13%
Cn1ccs/c1=N\S(=O)(=O)c1ccc(Br)cc1,-15%,-16%
CCCCCCc1nc(C(N)=O)c2[nH]c(=O)n(-c3ccc(OC)cc3OC)c2n1,0%[7.34 µM],-6%[7.34 µM]
CC(=O)C1C(=O)c2c(cccc2[N+](=O)[O-])C1=Nc1cccc(Cl)c1 (configuration not stated),-10%,-10%
COc1cc2c(cc1NC(=O)COC(=O)C1CC(=O)N(Cc3ccco3)C1)oc1ccccc12 (configuration not stated),-15%,-20%
CC(C)(C)OC(=O)NCc1n[nH]c(=S)n1C1CC1,-7%,-15%
Cc1ccc2cc(CN(C(=O)c3ccco3)c3ccccc3C)c(=O)[nH]c2c1,-11%,-20%
CCOC(=O)C(=O)N/N=C/c1ccco1,0%[7.34 µM],-14%[7.34 µM]
COCOCCn1cc(CN2CCS(=O)(=O)N(Cc3ccc(-c4ccc(F)nc4)cc3)C(C)C2=O)nn1 (configuration not stated),-9%,i
CCOC(=O)Cn1c(CN2CCN(c3ccc(OC)cc3)CC2)nc2c1c(=O)[nH]c(=O)n2C,-8%,-6%
O=C(COC(=O)/C=C/c1ccc(OC(F)F)cc1)NC(=O)NC1CCCCC1,-10%,i
CCOc1ccc(-c2nn[nH]n2)cc1OCC,-3%,-8%
c1ccc(COCC2CCNCC2)cc1,-1%,-2%
CC(NCC(O)COc1ccc2ccccc2c1)c1ccccc1 (configuration not stated),-14%,?
CCc1ccccc1NC(=O)Cn1cc2c(n1)CCC(C)C2 (configuration not stated),-16%,-8%
O=C1CCC(C(=O)Nc2cccc(C(F)(F)F)c2)N1 (configuration not stated),2%,-11%

# New compounds follow
SMILES,VACV Venus inh,VACV mCherry inh
O=C(c1ccc(F)cc1)N1CCN(c2cnn(-c3ccccc3)c(=O)c2Cl)CC1,-22%,-3%
COc1ccccc1C(=O)COC(=O)c1nc2nc(C)cc(C)n2n1,-7%,-10%
COc1ccc(/C=C/C(=O)N(C)C2CCS(=O)(=O)C2)cc1OC (configuration not stated),-11%,-6%
CC(C)(C)n1nc2c(c1NC(=O)c1ccccc1)CS(=O)(=O)C2,-4%,i
COc1ccc(-n2c(SCCNCCO)nc3sc4c(c3c2=O)CCCC4)cc1,-22%,?
CCc1nc2ccc(C(=O)N(C)CCCN(C)C)cn2c1N(C)C(=O)C1CCCCC1,9%,12%
CO[C@@H]1O[C@@H]2COC(c3ccccc3)O[C@@H]2[C@@H](OC)[C@@H]1O (some centres not stated),-9%,-13%
O=C(NCCc1ccccc1)c1cccc2c(-c3cccnc3)coc12,-22%,2%
COCCn1c(SCc2ccc(Cl)cc2)nc2c1c(=O)[nH]c(=O)n2C,-23%,-25%
Cc1cccc(NC(=O)C(=O)NCC2CCCN2S(=O)(=O)c2cccs2)c1 (configuration not stated),-24%,-21%
CCCC(C(=O)NC1CCCCC1)N(Cc1ccco1)C(=O)CNS(=O)(=O)c1ccccc1 (configuration not stated),-12%,-11%
COc1ccc(-n2c(=O)c3sc4ccccc4c3n(CC(=O)N3CCCC3)c2=O)cc1,-1%,-10%
CC(=O)Nc1ccc(S(=O)(=O)NCCC(=O)OCC(=O)c2ccc(Br)cc2)cc1,-7%,i
CC(=O)Oc1cc2c(cc1Cl)C(c1cccs1)CC1(CC(C)(C)NC(=S)N1)O2 (configuration not stated),-2%,-8%
CCCS(=O)(=O)NC(=O)C1(C)CCN(C(=O)c2cc3ccccc3s2)C1 (configuration not stated),3%,0%
Cc1csc2nc(COc3ccccc3NC(=O)c3ccco3)cc(=O)n12,-9%,-19%
Cc1ccccc1-n1c(SCc2ccc(Cl)cc2)nc2[nH]ncc2c1=O,-14%,-9%
O=C(c1ccc(CS(=O)Cc2cccc(Cl)c2)o1)N1CCN(C2CCCCC2)CC1 (configuration not stated),-6%,-30%
COc1ccc(N=C2NC(=O)S/C2=C\c2ccc(N(C)C)cc2)cc1,106%[activator],13%
Cc1ccc(CN2CCN(/N=C/c3ccc(C(F)(F)F)cc3)CC2)cc1,-7%,-17%
Cc1cccc(-c2nc3ccccc3c(=O)n2NC(=O)c2cccs2)c1,-13%,-14%
Cc1[nH]c2ccccc2c1C(=O)C(=O)NC1CC1,1%,-15%
N/C(Cn1nnc(-c2ccccc2)n1)=N\O,-5%,i
O=C(NCCSCc1ccco1)Nc1cccc(Cl)c1,-12%,-2%
O=C(NCCS(=O)(=O)N1CCN(Cc2ccccc2)CC1)c1ccccc1,5%,?

# Later entries
SMILES,VACV Venus inh,VACV mCherry inh
Cc1ccnc(NC(=O)C2CCN(S(=O)(=O)c3c(C)c(C)cc(C)c3C)CC2)c1,?,11µM*
N#Cc1nnn2c1nc(N)c1c(Cl)cccc12,-10%,11%
NC(=O)c1nn(-c2ccccc2)nc1N,-14%,i
Cc1cccc(OCCCC(=O)NC(C)c2ccccc2)c1 (configuration not stated),-7%,-1%
CCOC(=O)N1CCC(c2nc3ccccc3[nH]2)CC1,-24%,-23%
COc1cccc(/C(O)=C2/C(=O)C(=O)N(c3cc(C)on3)C2c2cccs2)c1 (configuration not stated),-12%,-24%
Cc1ccc(C(=O)OCC(=O)NCc2ccc3c(c2)OCO3)s1,-21%,i
